Assay outcomes deposited in PubChem BioAssay by ICCB-Longwood Screening Facility, Harvard Medical School.
GIV Gai3 FP: GIV-Galpha-i interaction inhibition | P08753 | Galpha-i3/FITC-GIV peptide fluorescence polarization, 90 min; hits give low values; scaled: aluminum fluoride 0%, vehicle 100% | percent of control (FP), % (concentration not given with the values) | 210,000 tested, 0.42% active | AID 1224905;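 active = replicate mean at 85% of control or lower, very high polarization wells dropped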;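 note: wells of about 15 µL received 100 nL stock; the first replicate is given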
Target sequence (P08753 whole entry, looked up): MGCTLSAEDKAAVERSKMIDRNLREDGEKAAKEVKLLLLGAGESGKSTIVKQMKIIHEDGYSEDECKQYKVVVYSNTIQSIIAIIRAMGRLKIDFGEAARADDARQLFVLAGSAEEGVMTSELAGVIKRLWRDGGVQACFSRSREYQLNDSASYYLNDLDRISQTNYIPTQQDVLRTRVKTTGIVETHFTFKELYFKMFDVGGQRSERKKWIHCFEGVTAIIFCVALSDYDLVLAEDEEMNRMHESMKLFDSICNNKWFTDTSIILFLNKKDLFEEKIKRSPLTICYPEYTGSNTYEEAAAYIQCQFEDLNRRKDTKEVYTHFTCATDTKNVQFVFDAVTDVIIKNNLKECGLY
HCMV UL50-53 inh: disrupts HCMV UL50-UL53 complex binding; HTRF UL50-UL53 interaction, normalized percent inhibition; inhibition, % (no concentration beside the values); 190,000 tested, 0.15% active; AID 1918969;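 active = both replicates at 50% or more, plus weaker picks with an unusually low signal ratio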;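 note: stock transfer was 100 nL into about 20 µL; 0% = negative control wells and 100% = wells with untagged competitor protein; inactives centre near -12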
Sa growth 42C: blocks Staphylococcus aureus growth. S. aureus RN4220 growth, OD600, 20 h, 42 °C; hits give low values. relative growth, % (no concentration beside the values). 170,000 tested, 0.53% active. AID 720641;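 active = growth at 42 °C up to 50% and 20 or more points under that at 30 °C, or under 10% at both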;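 note: 300 nL library stock went into each well; scaled to the means of positive and negative controls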
Sa growth 42C second temp: second read-out of Sa growth 42C, no call of its own (marks repeat the call); relative growth, %; measured here: growth at 30 °C;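 optical density after 20 h as mean of two plates; 100% = untreated growth and lower means inhibition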
* = called active by the depositor; . = not tested or not shown; & = joins results of further samples.

no.	Compound	GIV Gai3 FP	HCMV UL50-53 inh	Sa growth 42C	Sa growth 42C second temp
1	Cc1cccc(C(=O)Nc2ccc(-c3nc(C)no3)cc2)c1	103	-6	.	.
2	CCn1c(CN(c2ccc(C)cc2)S(C)(=O)=O)nnc1SCC(=O)Nc1ccc(C)cc1	106	-25	.	.
3	Cc1cc2ccccc2n1CC(=O)Nc1cccc(C(=O)NC2CC2)c1	.	-7	99	90
4	COc1ccc(CNC(=O)c2ccc(N3CCCS3(=O)=O)cc2)cc1	102	.	105	87
5	CC(=O)Nc1ccccc1OCc1cc(=O)n2c3c(sc2n1)CCCC3	106	7	90	95
6	CCCCN(C(=O)c1cn(-c2ccc(OC)cc2)c(=O)c2ccccc12)C1CCN(C(C)=O)CC1	105	.	84	64
7	Cc1ccc(-c2nc(CS(=O)CC(=O)N3CCN(c4ccccc4)CC3)c(C)o2)cc1 (stereo unspecified)	109&103	-3&-7	94	84
8	COC(=O)C1=C(O)CCN(C)C1	100	-24	117	84
9	N#C/C=C1\n2c(nc3ccccc32)OC12CCCCC2	101	1	103	90
10	O=C(NC1CCCCC1)C1CC1c1ccccc1 (stereo unspecified)	100	1	95	86
11	c1cc(N2CCCCC2)nnc1N1CCCCC1	106	-31	94	98
12	CCN(C(=O)CO)c1c(N)n(Cc2ccccc2)c(=O)n(CC(=O)Nc2ccc(C)c(C)c2)c1=O	.	5	85	94
13	Nc1ccc2c3c(cccc13)C(=O)N(c1ccccc1)C2=O	-30*	-56	95	87
14	COc1c(CO)cc(C)cc1CO	102	-18	95	82
15	Cc1ccc(-n2nc(C)cc2NC(=O)CSc2nnc(C3COc4ccccc4O3)n2C)cc1 (stereo unspecified)	.	-29	106	92
16	CCCCC1(C(=O)OCC)CC(CSC(=N)N)OC1=O (stereo unspecified)	99	2	86	94
17	Cc1cc2c(n1-c1ccc(Br)cc1)CC(C)(C)CC2=O	106	-8	107	95
18	CCn1cc(C(=O)NCCCN2CCN(c3cccc(Cl)c3)CC2)c(=O)c2cc(S(=O)(=O)N(C)C)ccc21	104	-11	113	61
19	O=C(CCSCc1cnn(-c2ccccc2)c1-n1cccc1)NCC1CCN(CCc2ccc(F)cc2)CC1	106	-14	.	.
20	Cc1cccc(N2CCN(C(=O)CCS(=O)(=O)c3ccc4c(c3)CC(=O)N4C)CC2C)c1 (stereo unspecified)	106&99	-20	81	81
21	CNc1nc(NCc2ccco2)c2ccccc2n1	107	-28	72	58
22	O=CNCc1nc2ccccc2n1Cc1ccccc1	105	5	109	100
23	CCOc1ccc(NC(=O)CN(C2=NC3CS(=O)(=O)CC3S2)c2ccccc2)cc1 (stereo unspecified)	108	8	97	99
24	OCCN1CNC(=S)NC1	110	35	105	100
25	CC(C)c1ccc(NC(=O)Cn2c(=O)oc3cc(S(=O)(=O)N4CCCC4)ccc32)cc1	101	-4	110	81
26	CCN1CCN(C(=O)c2cn(-c3ccccc3)nc2-c2cccs2)CC1	.	13	99	98
27	O=C(NCCSc1ccc(C(F)(F)F)cn1)c1ccc(Cl)cc1	109	-4	123	99
28	CCOC(=O)c1ccc(NC(=O)CO/N=C/c2ccc3c(c2)OCO3)cc1	.	-8	73	88
29	O=C(Nc1ccccn1)NC12CC3CC(CC(C3)C1)C2	107	6	82	78
30	Cn1c(=O)c2c(SCc3cccc(C(F)(F)F)c3)nc(-c3ccco3)nc2n(C)c1=O	101	.	85	88
31	CCOc1ccc(C(=O)Nc2cc3[nH]c(=O)[nH]c3cc2C)cc1OCC	106	-36	105	87
32	CC(C)N(C(=S)NC(=O)C1CC1)c1ccccn1	.	-6	104	85
33	Cc1cc(NC(=O)CN(C)S(=O)(=O)c2ccc3c(c2)CCCC(=O)N3)ccc1Br	108	.	86	81
34	COc1ccc(N2CCN(C(=O)c3cccc(NC(=O)c4nsc5ccccc45)c3)CC2)cc1	107	.	92	107
35	CCOc1ccc(CCNC(=O)C2CCN(Cc3nc(-c4ccccc4C)oc3C)CC2)cc1OCC	103	-37	99	92
36	CCCCCN1C(C(=O)c2ccccc2)=C(NC(=O)COc2ccccc2)c2ccccc2S1(=O)=O	99	-12	.	.
37	Cc1ccc(S(=O)(=O)NCCc2nnc3ccc(SCC(=O)Nc4ccc(OC(F)(F)F)cc4)nn23)cc1	105	.	111	87
38	CCOC(=O)c1[nH]nc2c1COc1ccccc1-2	106	.	97	58
39	COc1ccc(NC(=O)N2CCC(CN3CCCC3)CC2)c(OC)c1	101	.	126	93
40	CN(C)c1ccc(C(CNS(=O)(=O)c2ccc(F)cc2)N2CCCC2)cc1 (stereo unspecified)	102	.	118	100
41	O=C(Cc1ccccc1)N1CCC(c2ccccc2)=N1	.	-17	112	85
42	Cc1nnc(NS(=O)(=O)c2ccc(OC(F)(F)F)cc2)s1	112	1	104	71
43	COC(=O)c1ccn(COc2ccccc2Cl)n1	.	-6	86	91
44	CC(C)Oc1ccc(C(=O)Nc2ccc3c(c2)CCCN3C(=O)c2cccs2)cc1	100	.	95	89
45	COc1ccc(C2CC(=O)C3=C(C2)Nc2onc(C)c2C3c2ccc(C)cc2)cc1OC (stereo unspecified)	108	-16	.	.
46	CCOC(=O)c1sc(N2C(=O)c3oc4cc(C)c(C)cc4c(=O)c3C2c2ccc(C)cc2)nc1C (stereo unspecified)	105	35	108	107
47	CCCCc1ccc(Oc2cc(N3CCOCC3)nc(-c3ccccc3)n2)cc1	108	5	102	117
48	CCOc1ccc(NC(=O)Cn2c(=O)n(Cc3ccccc3)c(=O)c3c4c(sc32)CN(C(C)=O)CC4)cc1	104	-6	107	80
49	Cc1cccc(N2CCN(S(=O)(=O)c3ccc(Cl)cc3)CC2)c1C	95	-12	.	.
50	COc1ccc(N(CC(=O)N2CCc3ccccc32)S(=O)(=O)c2c(C)n[nH]c2C)cc1	94	3	143	62
51	Cc1sc2c(c1C)c(=O)n(-c1ccc(Cl)cc1)c(=O)n2Cc1cc(=O)n2ccccc2n1	104	-6	101	95
52	COc1cc(OC)cc(C(=O)N2CCN(C(=O)COc3ccccc3)CC2)c1	106	-34	96	86
53	Cc1cc(N2C(=O)CCS2(=O)=O)cc(C)c1S(=O)(=O)N(C)C1CCS(=O)(=O)C1 (stereo unspecified)	101	-22	.	.
54	O=C1NC(=Nc2ccccc2)S/C1=C/c1cc(Br)cc(Cl)c1O	161	-16	.	.
55	CC(C)c1ccc(S(=O)(=O)Nc2cc(SCC(=O)O)c(O)c3ccccc23)cc1	105	.	56	17
56	Cc1c(C#N)c(NC(=O)CSc2nc3ccccc3s2)n(CC2CCCO2)c1C (stereo unspecified)	.	-2	120	90
57	Cc1nc(-c2cc(-c3nc(-c4ccc(C(F)(F)F)cc4)no3)no2)cs1	100	-17	101	89
58	COc1ccc(CN2CCCN(Cc3ccccc3Cl)S2(=O)=O)cc1	101	3	.	.
59	COc1cccc2cc(C(=O)C3=C(O)C(=O)N(CCCN(C)C)C3c3ccncc3)oc12 (stereo unspecified)	108	-36	101	96
60	CCN(Cc1ccccc1)C(=O)CCn1ccc(C)n1	99	-12	107	83

Remaining list, next part
no.	Compound	GIV Gai3 FP	HCMV UL50-53 inh	Sa growth 42C	Sa growth 42C second temp
61	CCOC(=O)c1c(C)[nH]c(C)c1S(=O)(=O)N1CCC(C(=O)N2CCN(c3cccc(Cl)c3)CC2)CC1	102&104	.	123	87
62	COC(=O)CNC(=O)Nc1nc2c(s1)CCCCCC2	103	-3	.	.
63	CCOc1ccc(-c2cc(C#N)on2)cc1	109	-5	91	100
64	CCC(=O)c1ccc(OCC(O)CN(C)Cc2ccccc2OC)cc1 (stereo unspecified)	.	-7	94	91
65	COc1cccc(NC(=O)CC(=O)Nc2ccc3nc4n(c(=O)c3c2)CCCCC4)c1	101&97	-16&-21	98	85
66	Cc1noc(C)c1COc1cccc(C(=O)OC2CCCCC2=O)c1 (stereo unspecified)	.	-27	100	85
67	COc1cccc(-c2cc(C(=O)N3CCCCC3C)no2)c1 (stereo unspecified)	105	.	117	83
68	COC(=O)c1ccccc1-n1cc2c(c1-c1cccc(C)c1)c(=O)n(C)c(=O)n2C	104	-11	108	98
69	O=c1c2sc3ccccc3c2n(Cc2ccccc2F)c(=O)n1Cc1ccccc1	107	2	98	100
70	Fc1ccc(Cc2cn3cc(-c4ccccc4)nc3s2)cc1	109	-38	78	90
71	COC(=O)c1ccccc1NS(=O)(=O)c1ccccc1	101	-4	95	108
72	COc1cccc(C2CC(=O)Nc3c2c(=O)n(C)c2nc4ccccc4n32)c1 (stereo unspecified)	109	-11	107	83
73	CCc1ccc(CNC(=O)C2CCN(C(=O)c3ccc(-n4c(C)cc5ccccc54)s3)CC2)cc1	106	.	94	91
74	Cc1ccc(CN2COc3c(cc4c5c(c(=O)oc4c3C)CCC5)C2)cc1	102	-23	95	80
75	Cc1nc(-c2ccccc2)sc1-c1ccc(SCC(=O)NC2CCCC2)nn1	99	3	.	.
76	O=C(N/N=C1\CCCc2ccccc21)c1ccc(O)cc1	.	-24	95	94
77	C=CCN1C(=O)/C(=c2\sc3n(c2=O)C(c2ccccc2)C(C(=O)OCC)=C(C)N=3)c2ccccc21 (stereo unspecified)	105	-15	.	.
78	O=C(c1ccc2c(c1)N(Cc1cccc(Cl)c1)C(=O)c1ccccc1S2=O)N1CCN(c2cccc(C(F)(F)F)c2)CC1 (stereo unspecified)	94	.	141	96
79	CCCN1CCC(N2CCCC(C(=O)N(C)CCc3ccc(OC)c(OC)c3)C2)CC1 (stereo unspecified)	110	.	94	90
80	CCOC(=O)c1ccc2c(c1)nc(SCC(=O)Nc1ccccc1F)n2CC	.	-9	117	96
81	CSc1ccc(/C=C2\C(=O)N(C)N=C2C)s1	102	-68	103	91
82	O=C1c2ccc(Oc3cccc(N4C(=O)C5C6C=CC(C6)C5C4=O)c3)cc2C(=O)N1c1ccccc1 (stereo unspecified)	101	-17	.	.
83	CC(=O)Nc1cc(C(=O)c2ccc(Cl)cc2)nn(-c2ccccc2)c1=O	101	-24	94	83
84	Cc1[nH]c(=O)[nH]c(=O)c1S(=O)(=O)NC1CC1	109	0	.	.
85	CCCCc1cc(=O)oc2cc(C)c3c(C)c(C)oc3c12	99	-9	103	89
86	COc1ccc(Nc2nnc(SCc3nc4ccc(Cl)cc4n3CCO)s2)cc1	.	-32	87	63
87	O=C(CSc1nnc2n1CCCCC2)Nc1c(Cl)cccc1Cl	99	-10	78	81
88	OC(C#CCN1CCOCC1)(c1ccccc1)c1ccccc1	105	-32	104	84
89	CC1CCc2sc3ncnc(NCCCN(C)C)c3c2C1 (stereo unspecified)	108	31	94	105
90	Fc1ccc(CNCCCSc2nnnn2-c2ccccc2)cc1	109	-6	73	98
91	COC(=O)CSc1n[nH]c(-c2ccc(Cl)cc2)n1	97	1	108	92
92	O=C1[C@@H]2Cc3ccccc3CN2C(=O)N1c1ccc2c(c1)OCCO2	102	-20	.	.
93	COc1ccc(C2CCCN2C(=O)c2cnn3cc(Br)cnc23)cc1 (stereo unspecified)	116	-40	.	.
94	CCN(C(=O)CCc1ccccc1)C1CCCCC1	.	-15	103	101
95	CC1(C(=O)NC2CCCCC2)Cn2c(cc3ccccc32)C(=O)N1CCCN1CCOCC1 (stereo unspecified)	99	-12	.	.
96	COC(=O)c1c(CSc2nnc(-c3ccco3)o2)nc2ccccc2c1-c1ccccc1	.	-16	121	104
97	CCN(CC)C(=O)Cn1c(=O)n(-c2ccc(Cl)c(Cl)c2)c(=O)c2c(C)c(C(=O)N(CC)CC)sc21	97	.	82	80
98	C1=CSC(=C2SC=CS2)S1	.	40	35	27
99	Cn1c(=O)c2ccc(C(=O)NC3CCCC3)cc2n2c(=O)n(CC(=O)c3ccccc3)nc12	106	-42	.	.
100	CCC1CCC(c2nnc(-c3ccc(Br)cc3)o2)CC1 (stereo unspecified)	109	.	103	71
101	CC(C(=O)N1CCCCCC1)(c1ccccc1)c1ccccc1	.	-5	102	87
102	CCCc1cnc(N2CCN(C(=O)c3ccccc3)CC2)nc1	97	-21	107	80
103	Cc1cc(=O)oc2cc(NS(=O)(=O)c3ccc4c(c3)CCO4)ccc12	100	-38	88	78
104	O=c1c2n[nH]c(=S)n2ccn1-c1ccc(F)c(F)c1	103	-23	.	.
105	CN1CCCc2cc(/C=C3\CCC(C4CCCC4)C3=O)ccc21 (stereo unspecified)	157	.	97	86

2 compounds drawn at random from the list so far, as already listed:
no.	Compound	GIV Gai3 FP	HCMV UL50-53 inh	Sa growth 42C	Sa growth 42C second temp
105	CN1CCCc2cc(/C=C3\CCC(C4CCCC4)C3=O)ccc21 (stereo unspecified)	157	.	97	86
99	Cn1c(=O)c2ccc(C(=O)NC3CCCC3)cc2n2c(=O)n(CC(=O)c3ccccc3)nc12	106	-42	.	.

Record cards (already shown). Order of screens: GIV Gai3 FP | HCMV UL50-53 inh | Sa growth 42C | Sa growth 42C second temp
`CCN(CC)C(=O)Cn1c(=O)n(-c2ccc(Cl)c(Cl)c2)c(=O)c2c(C)c(C(=O)N(CC)CC)sc21` across the screens: 97 | . | 82 | 80
`Cn1c(=O)c2ccc(C(=O)NC3CCCC3)cc2n2c(=O)n(CC(=O)c3ccccc3)nc12` across the screens: 106 | -42 | . | .
`C1=CSC(=C2SC=CS2)S1` across the screens: . | 40 | 35 | 27
`CN1CCCc2cc(/C=C3\CCC(C4CCCC4)C3=O)ccc21` (stereo unspecified) across the screens: 157 | . | 97 | 86
`CC(C(=O)N1CCCCCC1)(c1ccccc1)c1ccccc1` across the screens: . | -5 | 102 | 87
